Cruzain inh Det – inhibitors of Trypanosoma cruzi cruzain with detergent; 200,000 tested, 0.43% active; P25779; purified cruzain, Z-FR-AMC fluorescence, 0.01% Triton; Potency, µM, without a hit: max response, negative = inhibition, hits mostly inhibitors;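 note: plate controls were neutral wells for no effect and buffer without enzyme for full effect; nearly all actives have a fitted effect of over 40% in size; top concentration of the series not given in the record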
Target sequence (P25779 123-467 limits assumed): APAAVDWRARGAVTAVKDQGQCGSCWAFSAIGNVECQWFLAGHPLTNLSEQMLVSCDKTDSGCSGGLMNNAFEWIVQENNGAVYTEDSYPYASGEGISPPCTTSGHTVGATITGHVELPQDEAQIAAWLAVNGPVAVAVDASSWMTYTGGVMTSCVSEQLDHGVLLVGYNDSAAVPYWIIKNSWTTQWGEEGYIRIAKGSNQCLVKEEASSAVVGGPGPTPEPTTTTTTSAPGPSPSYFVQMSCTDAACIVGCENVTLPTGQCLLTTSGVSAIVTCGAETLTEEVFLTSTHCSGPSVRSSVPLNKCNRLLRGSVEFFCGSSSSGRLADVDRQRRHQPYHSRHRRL
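Steps: dispense cruzain (1.5 nM final) in acetate buffer pH 5.5 with DTT and 0.01% Triton X-100; pin-transfer compounds; incubate 15 min RT; add Z-FR-AMC (2 uM final); read fluorescence every 30 s, using the 60 s intensity change.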
2A StopGo – lowers the luciferase signal of an FMDV 2A StopGo reporter | human cells with a luciferase reporter of 2A StopGo recoding; control for the full effect not named in the record | Potency, µM (titrated, usually from 57.9 µM), for inactives: at the highest dose signal change, negative = less light | 410,000 tested, 1.2% active | AID 1159524; active = well fitted falling curve with a large enough effect; inconclusive = small, poorly fitted or top-dose-only effect; inactive = no such curve, though single readings can be large or run the other way; tested in HEK293T cells; note: nearly all actives have a fitted effect of over 45% in size; luciferase light after 4 h
Cruzain inh noDet – blocks cruzain activity in detergent-free assay. Potency, µM, for inactives: max response, negative = inhibition, most hits filed as inhibitors. purified cruzain, Z-FR-AMC fluorescence, no detergent. 200,000 tested, 2.3% active;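 note: plate controls were enzyme without inhibitor for no effect and buffer without enzyme for full effect; nearly all actives have a fitted effect of over 40% in size; top concentration of the series not given in the record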
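Detergent-free condition (0.00005% Triton X-100) in acetate buffer pH 5.5 with DTT. 1.5 nM enzyme and compound were pre-mixed 15 min, then 2 uM Z-FR-AMC substrate added; reaction progress from fluorescence change between first and third reads (60 s).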
Active calls of the source: *; ? = inconclusive; & = joins results of further samples; ! = a repeat was not active; [ ] = dose if it differs, or a comment. Unless noted, calls come from the whole dose curve; as a rule, active = well fitted curve in the direction sought with a large enough effect; inconclusive = small, poorly fitted or top-dose-only effect, or another doubt; inactive = no such curve, though single readings can be large; an effect the other way counts as inactive or inconclusive. Unless noted, % is set by controls: 0 for no effect and ±100 for the full control effect; potency is the fitted concentration of half-maximal effect.

SMILES	Cruzain inh Det	2A StopGo	Cruzain inh noDet
CC[C@@]1(O)C(=O)OCc2c1cc1n(c2=O)Cc2cc3cc(O)ccc3nc2-1	-3.7%&-2.1%	0%&9%	-9%&-1%
C=C(C)c1cc2cc(C(C)=O)c(O)cc2o1	1.0%&-3.8%	8%&32%	-9%&-10%
Cc1noc(C)c1-c1ccc2ncnc(NCc3ccccc3)c2c1	-2.8%	8%	3%
CN1CCN(c2nc(-c3ccc(N(C)C)cc3)nc3ccccc23)CC1	-22%	56%[activator]	0%
O=C(O)c1nn(Cc2ccc(Cl)c(Cl)c2)c2ccccc12	1.1%	-1%	-2%
COCCn1c(=O)c(-c2cccs2)nc2cnc(Nc3ccccc3)nc21	3.5%	-8%	-7%
Cc1sc(N)c(C(=O)c2cccc(C(F)(F)F)c2)c1C	-20%	3%	-8%
Oc1ccc(Nc2nc(-c3ccc(Cl)cc3)cs2)cc1	-15%	27%	-28%
O=C(c1ccncc1)N1CCC[C@@]2(CCN(Cc3cc(C(F)(F)F)cc(C(F)(F)F)c3)C2)C1	2.6%	-7%	-13%
CN(C)c1ncc2nc(-c3cc(F)cc(F)c3)c(=O)n(C)c2n1	12%	10%	20µM*
CC(C)CCCC(C)C1CCC2C3CC(=O)[C@H]4CC(O)CC[C@]4(C)C3CC[C@@]12C (stereo partly drawn)	-1.0%	1%	20%
C=CCCCCCCCCCCCC(O)CC(O)COC(C)=O (stereo not drawn)	2.0%	-2%	?
COC(=O)C1=CO[C@@H](C)[C@@H]2CN3CC[C@]4(C(=O)Nc5c4ccc(OC)c5OC)[C@H]3C[C@H]12	2.0%	-14%	9%
COc1ncc2nc(-c3ccc(F)cc3)c(=O)n(-c3ccccc3)c2n1	-1.4%	-12%	-1%
CCNc1ncc2nc(-c3ccccc3)c(=O)n(CCC#N)c2n1	-8.5%	-13%	29%
c1ccc(N2CC[C@@]3(CCCNC3)C2)cc1	3.5%	-1%	-5%
CN(C)C(=O)c1ccc(-c2cncnc2NCc2cccs2)cc1	5.2%	-4%	2%
O=C(NC(=O)c1c(F)cccc1F)Nc1ccc(Cl)cc1	4.5%	39%[activator]	-9%
Cc1cc(C(=O)O)ccc1[C@H](N)C(=O)O	-4.0%	-5%	-1%
COc1ccc2[nH]cc(CCNc3ncncc3-c3ccc(C(=O)N(C)C)cc3)c2c1	3.3%	0%	-7%
CN1CCN(c2ncc3ncc(=O)n(C)c3n2)CC1	-22%	-22%	?
O=C(O)c1ccccc1-c1c2cc(Br)c(=O)cc-2oc2[c]([Hg])c(O)c(Br)cc12	20µM*!	?	?
Cc1cnc(CNc2ncnc3ccc(-c4cccc(NS(C)(=O)=O)c4)cc23)cn1	-1.5%	-16%	-5%
COc1ccc(-n2c(=O)c(-c3ccc(Cl)cc3)nc3cnc(N4CCNCC4)nc32)cc1	-3.9%	-8%	5%
c1cncc(CNc2cc(-c3ccc4c(c3)OCO4)ncn2)c1	-5.9%	59%[activator]	-17%
COc1cc(O)c(C(=O)c2ccccc2)cc1O	-2.8%	49%[activator]	-6%
C/C=C(\C)C(=O)OC1[C@@H]2C=C3C4CC(=O)OC(c5ccoc5)[C@]4(C)CCC3[C@@](C)(C2=O)C(C(O)C(=O)OC)C1(C)C (stereo partly drawn)	2.4%	13%	-7%
c1nc(N2CCNCC2)c2cc(-c3ccc4c(c3)OCO4)ccc2n1	-0.4%	26%	-1%
COc1ccccc1CNc1ccnc(-c2ccccc2C(F)(F)F)n1	-10%	-13%	9%
CC(=O)OC1CC[C@]2(C)C(CC[C@@]3(C)C2C(=O)C=C2C4C(C)C(C)CC[C@@]4(C(=O)O)CCC23C)C1(C)C (stereo partly drawn)	-2.8%	-10%	26%

Nothing new here: four of the compounds above.
SMILES	Cruzain inh Det	2A StopGo	Cruzain inh noDet
CN1CCN(c2ncc3ncc(=O)n(C)c3n2)CC1	-22%	-22%	?
O=C(O)c1ccccc1-c1c2cc(Br)c(=O)cc-2oc2[c]([Hg])c(O)c(Br)cc12	20µM*!	?	?
Cc1cnc(CNc2ncnc3ccc(-c4cccc(NS(C)(=O)=O)c4)cc23)cn1	-1.5%	-16%	-5%
COc1ccc(-n2c(=O)c(-c3ccc(Cl)cc3)nc3cnc(N4CCNCC4)nc32)cc1	-3.9%	-8%	5%

Back to the main list; the 3 compounds before the break are reprinted first.
SMILES	Cruzain inh Det	2A StopGo	Cruzain inh noDet
c1nc(N2CCNCC2)c2cc(-c3ccc4c(c3)OCO4)ccc2n1	-0.4%	26%	-1%
COc1ccccc1CNc1ccnc(-c2ccccc2C(F)(F)F)n1	-10%	-13%	9%
CC(=O)OC1CC[C@]2(C)C(CC[C@@]3(C)C2C(=O)C=C2C4C(C)C(C)CC[C@@]4(C(=O)O)CCC23C)C1(C)C (stereo partly drawn)	-2.8%	-10%	26%
CS(=O)(=O)Nc1cccc(-c2ccc3ncnc(NC4CCNCC4)c3c2)c1	-0.1%	-12%	-3%
Cc1noc(C)c1C(=O)N1CCC[C@@]2(CCN(c3cccc(-c4ccccc4)c3)C2)C1	-3.0%	?	?
O=c1ccn(C2OC(COP(=O)(O)OP(=O)(O)OP(=O)(O)O)C(O)C2O)c(=O)[nH]1 (stereo not drawn)	6.6%	3%	-6%
N#CCCn1c(=O)c(-c2cc(F)cc(F)c2)nc2cnc(Oc3ccccc3)nc21	-1.7%	-7%	-28%
Cn1cccc1C(=O)N1CCC2(CC1)CCN(c1ccccn1)CC2	3.3%	?	10%
COc1ncc2nc(C)c(=O)n(CCC#N)c2n1	-3.9%	-10%	2%
CCNc1ncc2nc(-c3cccs3)c(=O)n(Cc3cccc(OC)c3)c2n1	-1.4%	-1%	17%
CN(C)C(=O)c1ccc(-c2cncnc2NCc2cccnc2)cc1	1.5%	15%	1%
O=C(c1ccco1)N1CCC2(CC1)CCN(c1ccccc1)CC2	-2.3%	-11%	8%
CCCCCCCCCCCCC(=O)N1CCCC[C@H]1CNC(=O)[C@@H](N)CCCCN	-2.5%	-18%	14%
Cn1cccc1C(=O)N1CCC[C@@]2(CCN(c3ncccn3)C2)C1	4.1%	-9%	-1%
Cc1noc(C)c1C(=O)N1CCC2(CC1)CCN(c1ccccn1)CC2	1.1%	-20%	0%
Cn1cccc1C(=O)N1CCC[C@@]2(CCN(Cc3ccccc3)C2)C1	-4.4%	-7%	2%
O=CN1CCc2c([nH]c3ccccc23)C1c1cccc2cccnc12 (stereo not drawn)	-2.3%	-15%	-12%
CN1CCN(c2ncc3nc(-c4cn(C)c5ccccc45)c(=O)n(C)c3n2)CC1	-0.9%	-22%	-15%
N[C@H](C(=O)O)[C@@H]1[C@@H](C(=O)O)C1(F)F	3.0%	-1%&-10%	5%
COc1ccc(-n2c(=O)c(-c3ccc(Cl)cc3)nc3cnc(N(C)C)nc32)cc1	1.5%	-11%	14%
O=c1c(-c2cc(F)cc(F)c2)nc2cnc(N3CCOCC3)nc2n1C[C@H]1CCCO1	7.1%	-4%	-1%
N[C@@](C(=O)O)(c1ccc(P(=O)(O)O)cc1)C1CC1	0.4%	-5%	10%
CN1CCN(c2ncc3nc(-c4cccc(C#N)c4)c(=O)n(CCC#N)c3n2)CC1	?	-13%	?
CS(=O)(=O)Nc1cccc(-c2nc(NC3CC3)c3ccccc3n2)c1	1.8%	-10%	-2%
CCCCCCCCCCCCCCCCOC[C@@H](COP(=O)([O-])OCC[N+](C)(C)C)OC(C)=O	0.7%	-8%[6.7 µM]	?
O=c1c(-c2ccc(Cl)cc2)nc2cnc(N3CCOCC3)nc2n1Cc1ccc(F)cc1	1.5%	-17%	4%
NCC1O[C@@H](O[C@H]2C(O)C(O[C@@H]3C(O[C@H]4OC(CO)C(O)C(O)C4N)C(N)CC(N)[C@H]3O)O[C@@H]2CO)C(N)C(O)C1O (stereo partly drawn)	2.3%	-3%	6%
O=S(=O)(c1ccccc1)N1CCC2(CCN(c3ncccn3)CC2)CC1	-0.7%	?	4%
CCOC(=O)NC[C@H](Cc1ccc(OCCc2nc(-c3ccccc3)oc2C)cc1)N/C(C)=C\C(=O)c1ccc(C(F)(F)F)cc1	3.9%	-2%	4%
COCC(=O)N1CCC[C@@]2(CCN(C(=O)Nc3cccc(C#N)c3)C2)C1	5.7%	-7%	3%
c1ccc(-c2cccc(N3CC[C@@]4(CCCNC4)C3)c2)cc1	1.5%	-10%	-25%
COc1cccc(Cn2c(=O)c(C)nc3cnc(OCc4ccccc4)nc32)c1	-4.6%	-20%	29%
COC(=O)C1=COC(O[C@H]2OC(CO)[C@H](O)C(O)C2O)[C@H]2C1C(=O)C[C@@H]2C (stereo partly drawn)	1.8%	-11%	-11%
COc1cccc(Nc2ncc3ncc(=O)n(Cc4cccs4)c3n2)c1	-1.9%	0%	1%
CS(=O)(=O)N1CCC[C@@]2(CCN(Cc3ccc(C#N)cc3)C2)C1	2.7%	-13%	-9%
COc1cccc(-c2ccc3ncnc(Nc4ccccc4)c3c2)c1	-1.7%	?	23%
CN1CCN(c2ncncc2-c2ccc(C(=O)N(C)C)cc2)CC1	-0.7%	3%	13%
N#Cc1cccc(-c2nc(NCc3ccccc3)c3ccccc3n2)c1	-2.2%	-17%	11%
CC(=O)OC1CC(OC(C)=O)[C@]2(C)C(CC(OC(C)=O)[C@]3(C)C2CC[C@@]2(C)C(c4ccoc4)C(=O)C4O[C@]432)C1(C)C (stereo partly drawn)	-1.5%	?	?
COCCn1c(=O)c(-c2ccccc2)nc2cnc(Oc3cccc(Cl)c3)nc21	-5.8%	-20%	6%
CC(N)C(O)c1ccc(O)c(O)c1 (stereo not drawn)	3.3%&1.8%	-2%&-2%	23%&-4%
CC(=O)N1CCC2(CCCN(Cc3cc(C(F)(F)F)cc(C(F)(F)F)c3)C2)CC1	-2.6%	-9%	-3%
COc1cc(O)c(C(=O)/C=C/c2ccc(OC)c(O)c2)c(OC)c1	-8.3%	21%	?

Random excerpt: 2 records from the list
SMILES	Cruzain inh Det	2A StopGo	Cruzain inh noDet
CN1CCN(c2ncncc2-c2ccc(C(=O)N(C)C)cc2)CC1	-0.7%	3%	13%
CC(=O)N1CCC2(CCCN(Cc3cc(C(F)(F)F)cc(C(F)(F)F)c3)C2)CC1	-2.6%	-9%	-3%

(continued)
SMILES	Cruzain inh Det	2A StopGo	Cruzain inh noDet
COc1ccc(-c2coc3c(O)c(OC)ccc3c2=O)cc1	-2.0%	-3%	4%
O=c1c(-c2cccs2)nc2cncnc2n1C1CC1	1.8%	-16%	-5%
CN1CC[C@@]2(CCCN(C(=O)c3csnn3)C2)C1	-29%	-14%	-18%
CC1(C)CCC(C)(C)c2cc(C(=O)Nc3ccc(C(=O)O)cc3)ccc21	2.2%&-20%	?	-10%&9%
CC1=CCCC2C1(C)CCC(C)C2(C)CC/C(C)=C/C[n+]1cn(C)c2c(N)ncnc21 (stereo not drawn)	0.9%	-17%	-1%
O=C(Oc1ccccc1)N1CCC2(CCCN(C(c3ccccc3)c3ccccc3)C2)CC1	1.8%	-19%	-5%
CC(C)c1cc2c(c(O)c1O)[C@]1(C(=O)O)CCCC(C)(C)C1CC2 (stereo partly drawn)	-10%	0%	-20%
N#CC(C#N)=Cc1cc(O)c(O)c([N+](=O)[O-])c1	-3.1%	-7%	-8%
COc1c2c(cc3c1C(CC(=O)c1c(O)c(OC)c4occc4c1OC)[N+](C)(C)CC3)OCO2 (stereo not drawn)	0.3%	-16%	-5%
COc1c(Cl)ccc(Cl)c1C(=O)O	4.6%	7%	6%
COC1C(O)C(CO)OC1n1c(Br)nc2c(=O)[nH]c(N)nc21 (stereo not drawn)	3.9%	-4%	-1%
COc1ccc(CNc2ncnc3ccc(-c4ccccc4CN(C)C)cc23)c(OC)c1	-1.4%	3%	3%
Nc1nc2c(c(=O)[nH]1)N(C=O)C(CNc1ccc(C(=O)NC(CCC(=O)O)C(=O)O)cc1)CN2 (stereo not drawn)	4.1%	11%	-8%
COc1ccc(-c2coc3cc(O)ccc3c2=O)c(OC)c1O	5.2%	0%	4%
Nc1nc2c([nH]c(=S)n2C2OC(CO)C(O)C2O)c(=O)[nH]1 (stereo not drawn)	1.9%	-5%	11%
COc1ccccc1CCn1c(=O)c(-c2ccc(Cl)cc2)nc2cncnc21	-5.8%	-14%	-11%
CCNc1ncc2nc(-c3ccccc3)c(=O)n(Cc3ccc(F)cc3)c2n1	-6.8%	-4%	8%
O=C(c1ccco1)N1CCC2(CCCN(c3ncccn3)C2)CC1	-0.1%	-14%	-1%
Cc1ccccc1-c1nccc(NCc2cccnc2)n1	1.0%	-2%	4%
N#CC(O[C@@H]1OC(COC2OC(CO)C(O)C(O)[C@@H]2O)C(O)C(O)C1O)c1ccccc1 (stereo partly drawn)	5.3%	-18%	12%
Cc1ccccc1-c1nc(N2CCN(C)CC2)c2ccccc2n1	-1.8%	-15%	9%
O=c1cnc2cnc(Oc3ccccc3)nc2n1Cc1cccs1	-1.5%	-18%	-1%
COc1ccccc1-c1ccc2ncnc(NCCN3CCOCC3)c2c1	7.5%	-28%	-2%

From PubChem BioAssay

Only part of the results is shown; rates above refer to the full screens.
